# Cardio protect: modulators protecting cardiomyocytes from myocardial damage. protection from H2O2 cell death, % at 20 µM. AID 588492. actives 0.63% (n = 360,000). H9c2 cardiomyocytes, H2O2 injury protection, ATPLite, 2 h;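 active means compounds giving at least 50% protection of heart cells from peroxide-induced death in the single-dose screen, raw or plate-pattern-corrected value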;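 further: 0% = DMSO wells with peroxide and 100% = DMSO wells without peroxide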
# ABCB6 inh MLPCN: inhibitors of human ABC transporter ABCB6 | fluorescence ratio to DMSO, % at 10 µM | actives 0.19% (n = 360,000) | K562-ABCB6 porphyrin accumulation, flow cytometry, 1 h; active compounds read low;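 active means fluorescence ratio to DMSO below 75%, the collection mean minus 3 SD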;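 further: signal is porphyrin accumulated inside mitochondria; 100% equals median channel fluorescence of DMSO control wells; lower ratio means ABCB6 inhibition with less porphyrin fluorescence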
# MC4R barr agon: agonists of human melanocortin 4 receptor (MC4R) beta-arrestin; P32245; activation, % at 8.9 µM; AID 540308; U2OS MC4R beta-arrestin complementation, luminescence; percent of melanotan II response, DMSO zero; actives 0.98% (n = 360,000);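 active means activation above a per-plate cutoff, the mean activation of sample wells on that plate plus 3 SD, cut at about 8% in these data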
# HTR2A ag: agonists of mouse serotonin 5-HT2A receptor (HTR2A) | CHO-K1 mHTR2A beta-arrestin complementation, luminescence; percent of 30 µM serotonin response | actives 0.66% (n = 360,000) | P35363 | AID 624169 | activation, % at 7.6 µM;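 active means activation above a run cutoff, the mean activation of all tested compounds plus 3 SD, cut at about 14% in these data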;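 further: 0% = plate median of compound wells and 100% = 30 µM serotonin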
# MC4R antagonist: blocks human MC4R cAMP signaling; MC4R-expressing cells, MTII-stimulated cAMP, LANCE TR-FRET; actives 0.48% (n = 360,000); P32245; inhibition, % at 6.5 µM; AID 540295;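 active means inhibition above its plate's cutoff, the mean of tested wells on that plate plus 3 SD, cut at about 29% in these data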;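 further: 0% = Melanotan II alone and 100% = Melanotan II plus saturating MCL0020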
#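 Assay system: U2OS-MC4R stable cell line; Also added: Melanotan II; Technique: Eu-cAMP/anti-cAMP TR-FRET, emission 671 nm; Times: 30-min compound, 1-h challenge, 1-h detection, room temperature.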
# The depositor's hits bear a star; . = no result given. Only part of the results is shown, so the mix of outcomes need not match the whole.
SMILES,Cardio protect,ABCB6 inh MLPCN,MC4R barr agon,HTR2A ag,MC4R antagonist
C[C@H](CS)C(=O)N1CCC[C@H]1C(=O)O,-4,92,0.2,4,5
COCCCn1c(N)c(-c2nc3ccccc3n2C)c2nc3ccccc3nc21,11,100,-5.1,1,8
CCOC(=O)C1CCCN(C(=O)c2cc(Nc3ccc(OC)cc3)nc3ccccc23)C1 (centres undefined),-8,96,-2.3,7,14
Cc1ccc(/C=C/C(=O)c2ccccc2)cc1,-17,100,0.4,-3,7
CN(C)CCCN1c2ccccc2CCc2ccccc21,11,98,-1.9,-12,12
COc1ccc(C[C@H](C)NC[C@@H](O)c2ccc(O)c(NC=O)c2)cc1,4,101,.,1,.

# Another view of some results above:
> Cc1ccc(/C=C/C(=O)c2ccccc2)cc1
  Cardio protect = -17 | ABCB6 inh MLPCN = 100 | MC4R barr agon = 0.4 | HTR2A ag = -3 | MC4R antagonist = 7
> CN(C)CCCN1c2ccccc2CCc2ccccc21
  Cardio protect = 11 | ABCB6 inh MLPCN = 98 | MC4R barr agon = -1.9 | HTR2A ag = -12 | MC4R antagonist = 12
> COc1ccc(C[C@H](C)NC[C@@H](O)c2ccc(O)c(NC=O)c2)cc1
  Cardio protect = 4 | ABCB6 inh MLPCN = 101 | MC4R barr agon = . | HTR2A ag = 1 | MC4R antagonist = .

# Two neighbouring compounds out of the list so far, quoted:
SMILES,Cardio protect,ABCB6 inh MLPCN,MC4R barr agon,HTR2A ag,MC4R antagonist
C[C@H](CS)C(=O)N1CCC[C@H]1C(=O)O,-4,92,0.2,4,5
COCCCn1c(N)c(-c2nc3ccccc3n2C)c2nc3ccccc3nc21,11,100,-5.1,1,8

# High-throughput results from PubChem BioAssay.
